From PubChem
Anaer choline gr: inhibitors of anaerobic choline-dependent gram-negative bacterial growth | Gram-negative bacterium anaerobic choline minimal medium, absorbance growth; stronger effect = lower value; many inactives read as strong as hits in the columns shown | AID 1963822 | calls only | 55,000 tested, 0.2% active;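 active means growth z-score on choline under -2 at 7 or 20 h with little or no fall on glycerol, limits in tiers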;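 further: stock transfer was 300 nL into about 50 µL; the organism is E. coli; final concentration not given here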
Anaer choline gr early: second read-out of Anaer choline gr, no call of its own (marks repeat the call); z-score; measured here: choline growth z-score, timepoint 1;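 score of optical density at 7 h as mean of two plates; lower means less growth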
Starred values were filed as active, the others as inactive; i = inactive; & = joins results of further samples. These rows are one share of the data; count on the stated rates, not on these rows.

SMILES	Anaer choline gr	Anaer choline gr early
CCOCCCNC(=O)c1ccc2c(c1)N(Cc1ccccc1C)C(=O)c1ccccc1S2=O (stereo unspecified)	i	-0.5
Cc1ccccc1-c1noc(N2CCC(C(=O)NC3CCCCC3)CC2)n1	i	0.07
O=C(NCc1nc2cccnc2n1Cc1ccc(F)cc1)c1ccc(Cl)cc1	i	2.5
COc1ccc(CNC(=O)COc2cc(C)c3c(-c4cccc(C)c4)nn(-c4ccccc4)c3n2)cc1	i	-0.54
Cc1cc(=O)n(CC(=O)N2CCCc3ccccc32)c(-n2nc(C)cc2C)n1	i	-0.39
COc1ccc(-c2nc(Cn3c(=O)oc4ccccc43)no2)c(OC)c1	i	0.2
CN(C(=O)c1cc(=O)n(C)c2c1c(=O)n(C)c(=O)n2C)C1CCCCC1	i	-0.87
O=C1CC(c2ccc(Cl)cc2)c2c(-c3ccccc3)nn(-c3ccccc3)c2N1 (stereo unspecified)	i	0.93
CN(C)c1ncc2c(=O)n(C)ccc2n1	i	-1.6
Cc1ccccc1CSc1nc2ccccc2n2c(C)nnc12	i	0.68
COc1ccc(NC(=O)CSc2nnc3c4sc(N5CCCC5)nc4ncn23)cc1Cl	i	0.05
Cc1cccc(NC(=O)N2CCCC(c3nnc(C(=O)Nc4ccc(F)cc4)s3)C2)c1C (stereo unspecified)	i	-0.43
O=c1c(S(=O)(=O)c2ccc(F)c(F)c2)c[nH]c2c(F)c(Cl)ccc12	i	1.1
Cc1oc(-c2ccc(C(=O)NCCc3ccccc3)cc2)nc1CN1CCc2ccccc21	i	0.2
Cc1sc(-c2noc(C3CC3)n2)cc1S(=O)(=O)N1CCC(C(=O)NC2CCCCC2)CC1	i	0.59
Cc1cccc(Nc2nc(-c3ccncc3)cs2)c1	i	0.2
CC(C)Cn1c(=O)c2nscc2n(CC(N)=O)c1=O	i	0.7
CCc1ccc(NC(=O)c2cc3c([nH]c2=O)CC(C)(C)CC3=O)cc1	i	-1.4
CC(C)c1noc(C2CCCN2Cc2ccco2)n1 (stereo unspecified)	i	0.57
Cc1noc(C)c1S(=O)(=O)N1CCN(c2cc(-c3ccccc3)ncn2)CC1	i	1.1
CCc1cc(C2CCCN2C(=O)c2cc(C(C)C)no2)on1 (stereo unspecified)	i	-1.4
CN(Cc1cc(=O)n2ccsc2n1)C1CCCCC1	i	-0.1
Cc1nc(-c2ccc(Cl)cc2)sc1CCNC(=O)COc1ccc(F)cc1	i	0.44
CC(O)c1nc2ccccc2n1CCCCOc1ccccc1 (stereo unspecified)	i	-0.34
Fc1ccccc1-c1nn2c(CSc3ccccc3)nnc2s1	i	0.66

Four compounds out of the list above, arranged by the value under Anaer choline gr early, highest first.
SMILES	Anaer choline gr	Anaer choline gr early
Fc1ccccc1-c1nn2c(CSc3ccccc3)nnc2s1	i	0.66
CN(Cc1cc(=O)n2ccsc2n1)C1CCCCC1	i	-0.1
Cc1cc(=O)n(CC(=O)N2CCCc3ccccc32)c(-n2nc(C)cc2C)n1	i	-0.39
CCOCCCNC(=O)c1ccc2c(c1)N(Cc1ccccc1C)C(=O)c1ccccc1S2=O (stereo unspecified)	i	-0.5

Next section
SMILES	Anaer choline gr	Anaer choline gr early
O=C(Nc1ccc2c(c1)OCO2)C1CCN(c2ncc(-c3ccccc3)cn2)CC1	i	-0.9
COc1ccc(NC(=O)C2CCN(c3ccc(S(=O)(=O)c4ccc(C)cc4)nn3)CC2)cc1Cl	i	-0.3
O=C(Nc1cccc(Cl)c1)c1nnc(C2CCCN(C(=O)c3cccc(F)c3)C2)s1 (stereo unspecified)	i	1.5
Cc1cc(NC(=O)CSc2nc3ccccc3c3nc(CCc4c(C)n[nH]c4C)nn23)n[nH]1	i	0.54
Cc1ccc(CNC2=NCCNC23CCCCC3)cc1	i	0.95
Cc1sc(C)c(S(=O)(=O)N2CC=C(c3ccccc3)CC2)c1-c1cc(C(F)(F)F)on1	i	0.04
CCc1noc(-c2cccc(OCC(=O)Nc3nnc(CC(C)C)s3)c2)n1	i	-0.64
Cc1sc2ncnc(Nc3cccc(Cl)c3)c2c1S(=O)(=O)N1CCCCC1	i	-0.14
COc1ccccc1C1CC(=O)Nc2nc(N)[nH]c(=O)c21 (stereo unspecified)	i	-1.9
CC(C)c1cc(NCC2CCCO2)n2nc(-c3cccnc3)nc2n1 (stereo unspecified)	i	0.58
CCOc1ccc(NC(=O)C2CCCN(S(=O)(=O)Cc3ccccc3Cl)C2)cc1 (stereo unspecified)	i	3
Cc1ccc(S(=O)(=O)N2CCC(CN3CCCC(C)C3)CC2)cc1Cl (stereo unspecified)	i	0.2
CNC(=O)Cc1ccc(-n2c(=O)c3ccccc3n(CC(=O)Nc3cccc(Cl)c3)c2=O)cc1	i	-0.69
Cc1c(C(=O)Nc2ccc(F)cc2)sc2nc3n(c(=O)c12)CCCCC3	i	0.83
O=c1cc(CSc2ncn[nH]2)[nH]c2ccccc12	i	-0.13
CCN(CC)CCOC(=O)C1(C2CCCCC2)CCCCC1	i	0.55&0.44
CCOc1ccc(Oc2nc(C)nc3sc(C)c(C)c23)cc1	i	0.85
O=S(=O)(c1ccc(F)cc1)N1CCN=C1N1CCN(c2ccc(F)cc2)CC1	i	-0.18
O=C1CCCc2[nH]c(=O)c(C(=O)Nc3ccccc3)cc21	i	0.08
O=C(CSc1nnc(-c2ccc3c(c2)OCCCO3)n1C1CC1)c1ccc2c(c1)OCCO2	i	0.73
CC(c1ccccc1)n1cnc2c([nH]c3ccc(F)cc32)c1=O (stereo unspecified)	i	0.69
CCOC(=O)c1ccccc1NC(=O)c1c(C)oc2ccc(OCc3ccccc3)cc12	i	2.4
CCOc1ccc(Nc2nc(N)c(C(=O)c3ccc(OCC)cc3)s2)cc1	i	-0.04
CCCC(=O)Nc1ccc2c(c1)nc1n2CCN(Cc2ccccc2)C1	i	0.48
CCCCC(=O)Nc1ccc2c(c1)nc(CCNC(=O)C1CC1)n2C	i	-1

A second format for part of the listing above:
Fields: Anaer choline gr | Anaer choline gr early
- COc1ccc(CNC(=O)COc2cc(C)c3c(-c4cccc(C)c4)nn(-c4ccccc4)c3n2)cc1
→ i | -0.54
- Cc1noc(C)c1S(=O)(=O)N1CCN(c2cc(-c3ccccc3)ncn2)CC1
→ i | 1.1
- Cc1ccc(S(=O)(=O)N2CCC(CN3CCCC(C)C3)CC2)cc1Cl (stereo unspecified)
→ i | 0.2
- Cc1oc(-c2ccc(C(=O)NCCc3ccccc3)cc2)nc1CN1CCc2ccccc21
→ i | 0.2
- CC(c1ccccc1)n1cnc2c([nH]c3ccc(F)cc32)c1=O (stereo unspecified)
→ i | 0.69
- O=c1c(S(=O)(=O)c2ccc(F)c(F)c2)c[nH]c2c(F)c(Cl)ccc12
→ i | 1.1

The listing continues:
SMILES	Anaer choline gr	Anaer choline gr early
COc1ccc(Cl)cc1C(=O)NCC(c1ccc2c(c1)CCCN2C)N1CCCC1 (stereo unspecified)	i	-0.46
C=CCn1c(=O)c(=O)n(Cc2ccc(C(=O)NCCCOC(C)C)cc2)c2ccccc21	i	-1.1
COc1nc2ccccc2nc1N1CCCC(C(=O)N2CCCC2)C1 (stereo unspecified)	i	-1.1
Cc1noc(C)c1S(=O)(=O)N1CCc2c(c(-c3nc(-c4ccccc4)no3)nn2C)C1	i	0.28
Cc1cc(N2CCC(C)CC2)n2nc(CN3CCN(C)CC3)nc2n1	i	0.58
COC(=O)c1cc(S(=O)(=O)NCCC(=O)N2CCOCC2)cn1C	i	-0.22
CC(C)C[C@H](NC(=O)[C@@H](Cc1c[nH]c2ccccc12)NC(=O)[C@H](Cc1ccc(O)cc1)NC(=O)[C@H](CO)NC(=O)[C@H](Cc1c[nH]c2ccccc12)NC(=O)[C@H](Cc1cnc[nH]1)NC(=O)[C@@H]1CCC(=O)N1)C(=O)N[C@@H](CCCN=C(N)N)C(=O)N1CCC[C@H]1C(=O)NCC(N)=O	i	0.37
O=C(c1nnc(-c2cc(S(=O)(=O)Nc3cc(F)ccc3F)c[nH]2)o1)N1CCCC1	i	0.2
O=c1[nH]c(N2CCN(C3CCCCC3)CC2)nc2c(-c3ccc(Cl)cc3)csc12	i	0.31
CCC(C)NC(=O)CSCc1nc(-c2ccc(C)cc2)oc1C (stereo unspecified)	i	0.77
Cc1ccsc1C(=O)N1CCCCC1CCN1CCOCC1 (stereo unspecified)	i	-0.01
CCCCC1Oc2ccc(Cl)cc2NC1=O (stereo unspecified)	i	0.14
COc1ccc(-c2nn3c(-c4cccnc4)nnc3s2)cc1OC	i	0.09
CCn1cnc(S(=O)(=O)N2CCC(C(=O)N3CCCC3)CC2)c1	i	-0.87
Cc1cc(S(=O)(=O)Nc2cc3c(cc2N2CCCCC2)n(C)c(=O)c(=O)n3C)ccc1F	i	-1.1
COc1cccc(CSc2nc3cc(-c4ccccc4)sc3c(=O)n2C)c1	i	0.86
Cc1ccc(Nc2cc(N3CCN(C(=O)c4ccc(C)cc4)CC3)ncn2)cc1	i	0.63
CC(C)(C)c1csc(-c2csc(S(=O)(=O)NCc3ccccc3F)c2)n1	i	0.45
CCn1nc(C)c2ccnc(N3CCC(C(=O)N4CCN(C5CCN(C)CC5)CC4)CC3)c21	i	0.1
Cc1ccc(C)c(N2CCN(C(=O)C3CCN(c4nc5ccccc5n5cccc45)CC3)CC2)c1	i	1
CN1C(=O)C(Cc2ccccc2)c2cc(Br)ccc21 (stereo unspecified)	i	0.24
CCOC(=O)Cc1ccc(NC(=O)N2CCc3c(c(C(=O)N4CCCC4)nn3C)C2)cc1	i	0.58
CNC(=O)N1CCCC(c2cccc(C(=O)N3CCCCC3)c2)C1 (stereo unspecified)	i	1
CN1c2cc(Cl)ccc2-c2nc(SCC(=O)Nc3ccc4c(c3)OCO4)ncc2S1(=O)=O	i	0.78
CN1CCN(C(CNC(=O)c2ccc(F)cc2)c2ccc(N(C)C)cc2)CC1 (stereo unspecified)	i	-0.15

A different layout for part of the listing above.
mol,Anaer choline gr,Anaer choline gr early
CCOCCCNC(=O)c1ccc2c(c1)N(Cc1ccccc1C)C(=O)c1ccccc1S2=O (stereo unspecified),i,-0.5
Cc1ccccc1-c1noc(N2CCC(C(=O)NC3CCCCC3)CC2)n1,i,0.07
O=C(NCc1nc2cccnc2n1Cc1ccc(F)cc1)c1ccc(Cl)cc1,i,2.5
COc1ccc(CNC(=O)COc2cc(C)c3c(-c4cccc(C)c4)nn(-c4ccccc4)c3n2)cc1,i,-0.54
Cc1cc(=O)n(CC(=O)N2CCCc3ccccc32)c(-n2nc(C)cc2C)n1,i,-0.39

Next part
SMILES	Anaer choline gr	Anaer choline gr early
O=C(NC1CCCC1)c1ccc2c(=O)n(CC3CCCO3)c(SCc3cccc(Cl)c3)nc2c1 (stereo unspecified)	i	1.3
CCCNC(=O)Cc1c(C)nc2nc(-c3ccc(C(C)(C)C)cc3)nn2c1C	i	1.9
COc1cc(NC(=O)c2cn(-c3ccc(-c4noc(C)n4)cc3)nc2C)cc(OC)c1	i	-0.01
O=C(CCn1c2c(c3ccccc31)CCCC2)Nc1cccc2nsnc12	i	1.1
Cc1cc(Nc2nc(C(=O)NCC3CCCO3)cc3occc23)ccc1Br (stereo unspecified)	i	0.9
Cc1c(C(=O)NCC2(N3CCN(C)CC3)CCCCC2)oc2ccc(Br)cc12	i	-1.6
C=Cc1ccc(Cn2nc3n(CC(C)C)c(=O)c4ccccc4n3c2=O)cc1	i	0
CN1CCN(C(=O)c2noc3c2CCCCC3)CC1	i	0.12
Cc1c(C(=O)N2CCOCC2)oc2ccc3c(c12)C(=O)CC(C)(c1ccc(Cl)cc1)O3 (stereo unspecified)	i	-1.3
COC(=O)c1ccccc1NC(=O)c1ccc2c(c1)CCCN2S(=O)(=O)c1ccc(C)cc1	i	1.6
Cc1ccc(-c2cn3cccnc3n2)cc1NC(=O)C1CCCCC1	i	-0.91
O=c1c2cc3c(cc2nc(SCc2nc(-c4ccccc4)no2)n1-c1ccc(F)cc1)OCO3	i	-0.91
Cc1cccc(CSc2nnc([C@@H]3CCCN3)o2)c1	i	-0.69
O=S(=O)(c1ccc(F)c(Cl)c1)N1CCc2nc(N3CCCCC3)ncc2C1	i	0.35
CCOc1ccc(NS(=O)(=O)c2cc(C(=O)N3CCN(c4ccccn4)CC3)n[nH]2)cc1	i	0.63
O=C(Cn1cnc2c(oc3ccccc32)c1=O)Nc1ccc(Br)cc1F	i	-1.9
COc1ccc(NC(=O)c2nnc(C3CCN(C(=O)Nc4ccccc4OC)CC3)s2)cc1	i	0.56
CC1=C(C(=O)Nc2ccc(C)cc2C)C(c2ccc(F)c(Br)c2)n2ncc(C(=O)Nc3ccc(C)cc3)c2N1 (stereo unspecified)	i	-0.38
O=C(c1ccc2ccnc(N3CCN(c4ccc(F)cc4)CC3)c2c1)N1CCOCC1	i	-1.1
O=C(C1CCN(S(=O)(=O)c2cccc3cccnc23)CC1)N1CCN(c2ccc(Cl)cc2)CC1	i	-0.55
O=S(=O)(NCCn1c(CCc2ccccc2)nc2ccccc21)c1cccc2nsnc12	i	-0.49
Cc1nc(Nc2ccc(Br)cc2F)c2c(C)noc2n1	i	-0.45
COc1ccccc1C(=O)Nc1cnc2oc(-c3ccccc3)nn2c1=O	i	2.4
COc1cc2c(c(OC)c1)C(c1ccc(C)cc1)CC(=O)N2 (stereo unspecified)	i	0.8
O=c1[nH]c(SCc2cccc(Br)c2)nc2c1CN(Cc1ccccc1)CC2	i	1.2
Additional structures:
SMILES	Anaer choline gr	Anaer choline gr early
O=C(NCCCN1CCCCC1)c1cc2n(n1)CCCN(Cc1ccc(F)cc1)C2=O	i	-0.23
COc1ccccc1C1CC(=O)Nc2n[nH]c(C)c21 (stereo unspecified)	i	-2.3
CCCCCCCCNC(C)C(O)c1ccc(SC(C)C)cc1 (stereo unspecified)	i	-1.7
Cn1c(=O)n(-c2ccccc2)c(=O)c2cc3c(nc21)CC(C)(C)OC3	i	0.06
CCOc1ccccc1C1Nc2ccccc2-n2c(-c3ccccc3)c3c(=O)n(C)c(=O)n(C)c3c21 (stereo unspecified)	i	-0.17
CCCCC(=O)Nc1ccc2nc(SCC(=O)N3CCCC3)sc2c1	i	-0.49
COc1ccccc1CNC(=O)C1(C)COc2c(oc3ccccc23)C(=O)N1Cc1ccccc1F (stereo unspecified)	i	1.7
O=C(NCC1CCCO1)c1cc(-c2ccccn2)nc2ccc(S(=O)(=O)N3CCOCC3)cc12 (stereo unspecified)	i	0.72
